HSV augment – increases HSV replication in cells. HSV replication augmentation in cells, fold increase. 220,000 tested, 0.005% active. maximum fold increase;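 active = peak rise of 1.5-fold or more in the series; inconclusive = self-fluorescent or not available for retest; tested in PC3 cells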;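 note: first round at 10 µM; read as green reporter fluorescence; hits show the peak of a series up to 25 µM; 1 = signal of infected wells without compound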
HSV augment primary fold – also measured in HSV augment; calls as there; fold increase; compound at 10 µM; measured here: primary screen fold increase 10 uM; tested in PC3 cells;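 GFP signal in the first replicate; 1 = infected wells without compound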
Numbers without * were called inactive; i = inactive; u = inconclusive; x = no result given. This is a subset; the hit share may differ from the screen's.

HSV augment | HSV augment primary fold | SMILES
i | 0.8 | CCCNC(=O)c1onc(CSc2ccc(Cl)cc2)c1C(=O)NCCC(C)C
i | 0.73 | COc1ccc(-c2csc(NC(C)c3nc4cc(Cl)c(N5CCCCC5)cc4n3CCCO)n2)cc1 (stereo unspecified)
i | 0.96 | Cc1c(C)c2c(c(C)c1O)CC[C@@](C)(CCC[C@H](C)CCC[C@H](C)CCCC(C)C)O2
i | 0.93 | NS(=O)(=O)c1cc(C(=O)O)c(NCc2ccco2)cc1Cl
i | 0.7 | CCC(C)[C@H]1CN=C(N)N1CCc1cccc(F)c1 (stereo partly specified)
i | 0.87 | CN1C(=O)OC(C)(C)C1=O
i | 0.61 | COc1c(C)c2c(c(O)c1C/C=C(\C)CCC(=O)O)C(=O)OC2
i | 0.79 | CCOC(=O)CN1C(=O)N[C@@H](c2cccs2)C(C(=O)OC)=C1C
i | 1.1 | O=C(Nc1ccccc1)C1=C[C@H](C2CCCCC2)C[C@H](OCCCCO)O1
i | 0.92 | COC(=O)[C@H]1[C@@H](C)N(CCc2cc(OC)c(OC)c(OC)c2)C(=O)N[C@H]1c1ccccc1

Entries from the list above with nitrogen in an aromatic ring:
HSV augment | HSV augment primary fold | SMILES
i | 0.8 | CCCNC(=O)c1onc(CSc2ccc(Cl)cc2)c1C(=O)NCCC(C)C
i | 0.73 | COc1ccc(-c2csc(NC(C)c3nc4cc(Cl)c(N5CCCCC5)cc4n3CCCO)n2)cc1 (stereo unspecified)

Additional compounds
HSV augment | HSV augment primary fold | SMILES
i | 0.67 | COC(=O)CNC(=O)C1Nc2ccccc2C2C=CCC12 (stereo unspecified)
i | 0.84 | O=C(Nc1ccc(C2CCCCC2)cc1)C1CCN(c2ncccn2)CC1
i | 0.64 | COC(=O)c1cccc(NC(=O)Cn2cnc3c2c(=O)n(C)c(=O)n3C)c1
i | 0.75 | Cc1ccc(-c2csc(NC(CO)c3nc4ccccc4n3CCOCCO)n2)cc1 (stereo unspecified)
i | 0.94 | O=C(NCc1ccccc1)C1=C[C@H](c2ccccc2)C[C@H](OCc2ccc(CO)cc2)O1
i | 0.93 | Cc1noc(C)c1COC(=O)c1cc2c(C)nn(-c3ccc(F)cc3)c2s1
i | 0.9 | CCN(CC)c1nc(N)c2c(N)nc(OC)cc2c1C#N
i | 0.81 | CC(=O)n1cc([C@H]2C=C(C(N)=O)O[C@@H](OCc3ccc(CO)cc3)C2)c2ccccc21
i | 0.95 | C=CCNC(=O)c1onc(CSc2ccccc2)c1C(=O)NCC=C
i | 0.98 | CC(=O)C[C@H]1c2ccccc2S(=O)(=O)N1C1CCCCC1

Single values from above:
COC(=O)c1cccc(NC(=O)Cn2cnc3c2c(=O)n(C)c(=O)n3C)c1 – HSV augment primary fold = 0.64
COC(=O)CNC(=O)C1Nc2ccccc2C2C=CCC12 (stereo unspecified) – HSV augment primary fold = 0.67

Record cards, from the list above.
CN1C(=O)OC(C)(C)C1=O as listed: HSV augment = i; HSV augment primary fold = 0.87
O=C(NCc1ccccc1)C1=C[C@H](c2ccccc2)C[C@H](OCc2ccc(CO)cc2)O1 as listed: HSV augment = i; HSV augment primary fold = 0.94
Cc1noc(C)c1COC(=O)c1cc2c(C)nn(-c3ccc(F)cc3)c2s1 as listed: HSV augment = i; HSV augment primary fold = 0.93

Further entries follow.
HSV augment | HSV augment primary fold | SMILES
i | 0.75 | CC(O)[C@H]1CN=C(N)N1CC(C)(C)C (stereo partly specified)
i | 0.85 | C=C1CCN([C@H](C(=O)O)C(C)C)S(=O)(=O)c2ccccc21
i | 0.96 | COC(=O)[C@@]1(Cc2ccc(OC)cc2)[C@H]2c3cc(C(=O)N(C)C)n(Cc4c(CO)[nH]cc(C)c4=O)c3C[C@H]2CN1C(=O)c1ccccc1
i | 0.95 | COC(=O)c1cc(-c2ccccc2)n(CCN)c1C
i | 1.1 | CCN1C(=O)N[C@@H](c2cccc(C(F)(F)F)c2)[C@H](C(C)=O)[C@H]1C
i | 0.64 | Cc1cc(O)cc(C)c1Cl
i | 1.3 | CCC1=CC(c2ccccc2)n2ncnc2N1 (stereo unspecified)
i | 0.88 | CC1=CC(c2ccc(Cl)cc2)n2ncnc2N1 (stereo unspecified)
i | 0.78 | CCCCNc1c(C(=O)OCC)c(C)nc2c1cnn2CC
i | 0.9 | CC(C)(O)CCc1c(-c2ccc(O)cc2O)oc2c3c(cc(O)c2c1=O)OC(C)(C)C=C3
i | 0.75 | O=C(N[C@@H](c1ccccc1)[C@H](O)c1ccccc1)[C@@H]1CCCN1C(=O)OCc1ccccc1
i | 0.91 | CCOC(=O)c1ccc(Nc2cc3ccccc3c(=O)[nH]2)cc1
i | 0.91 | CC1(OC(=O)c2ccco2)C(=O)C=C2C=C(c3ccc(C#N)cc3)OC=C2C1=O (stereo unspecified)
i | 0.93 | COc1cc(C2c3c(oc4ccccc4c3=O)C(=O)N2CCN2CCOCC2)cc(OC)c1OC (stereo unspecified)
i | 0.94 | CN(C)CC[C@@H](c1ccc(Br)cc1)c1ccccn1
i | 0.88 | CC1(c2nnc(-c3ccc(Cl)cc3)o2)CC(c2cccnc2)=NO1 (stereo unspecified)
i | 0.83 | C[C@@H]1CCC[C@]2(O[C@@H](CCO)C[C@H](O)[C@H]2O)O1
i | 1 | CC1(C)S[C@@H]2[C@H](NC(=O)COc3ccccc3)C(=O)N2C1C(=O)OCC1CCCCC1 (stereo partly specified)
i | 0.95 | Cc1ccc(C2=CC(c3ccc(C)cc3)n3ncnc3N2)cc1 (stereo unspecified)
i | 0.94 | COC(C/C=C\C(=O)[C@@H](C)OCc1ccccc1)OC
i | 0.85 | COCCn1c(SCC(=O)OCc2ccccc2)nc2c1c(=O)[nH]c(=O)n2C
i | 1.1 | CC(C)(O)[C@@H]1[C@@H]2C[C@@]3(CC[C@]4(C)C(CCC5[C@@]6(C)CC[C@H](O)C(C)(C)C6CC[C@]54C)[C@@H]13)C(=O)O2 (stereo partly specified)
i | 0.8 | O=C(CSc1ccc2nnc(-c3ccc(Cl)cc3)n2n1)N1CCCC1
i | 1.3 | O=C(NCCOc1ccccc1)C1Nc2ccc(OC(F)(F)F)cc2C2C=CCC12 (stereo unspecified)
i | 0.99 | Cn1nc(Cc2cccc3ccccc23)c(C#N)c1N
i | 0.66 | O=C(Nc1nccs1)[C@@H]1CC=C[C@@H]2CCN(Cc3ccccc3)C(=O)[C@@H]21
i | 0.86 | CCOC(=O)c1ccc(NC(=O)c2c(N)n(C)c(=O)[nH]c2=O)cc1
i | 0.92 | O=C1N[C@@H](Cc2ccccc2)C(=O)N2[C@@H]1C[C@@]1(Br)c3ccccc3N(S(=O)(=O)c3ccccc3)[C@@H]21
i | 1 | C=C1CCN([C@@H](Cc2ccccc2)C(=O)NCCC(C)C)S(=O)(=O)c2ccccc21
i | 0.78 | COc1ccc(CN2CC[C@H]3C=CC[C@@H](C(=O)N4CCOCC4)[C@H]3C2=O)cc1OC
i | 1.1 | COc1ccc(C(=O)O)c(O)c1
u | x | O=c1c2ccccc2sc2ccc(NCCCN3CCOCC3)cc12
i | 0.91 | C=CCOC(=O)C1=C[C@H](c2ccc(C(F)(F)F)cc2)C[C@H](OCCCCO)O1
i | 0.89 | C=CCN1CCc2c(cc(O)c(O)c2Br)[C@@H](c2ccccc2)C1
i | 0.79 | OCC[C@H]1C[C@H](O)[C@@H](O)[C@]2(CCCCO2)O1
i | 0.93 | CCCCN1C(=O)C(=O)NC[C@@H]1CCCCN
i | 0.78 | Fc1ccccc1-c1nc2c(s1)CCc1onc(-c3ccc(Br)cc3)c1-2
i | 0.96 | Cc1nc(C(=O)NC2CCCCC2)sc1C1(C)CC(c2cccnc2)=NO1 (stereo unspecified)
i | 0.79 | C=CCOC(=O)C1=C[C@@H](c2ccc(Br)cc2)C[C@@H](OCCCCO)O1
i | 0.87 | COC(C/C=C/C(=O)[C@H](C)OCc1ccccc1)OC
i | 0.79 | COC(C/C=C/[C@H](O)[C@H](C)OCc1ccccc1)OC
i | 0.81 | COc1ccc(C2COc3cc(O)ccc3C2)c(OC)c1O (stereo unspecified)
i | 0.9 | O=C(O)C[C@H]1c2cc(C(F)(F)F)ccc2S(=O)(=O)N1Cc1ccccc1
i | 0.9 | O=C1[C@H]2CCCC[C@H]2C(=O)N1CCCCN1CCN(c2nsc3ccccc23)CC1
i | 0.92 | CCCCOC(=O)c1ccc(NC(=O)c2ccc(F)cc2F)cc1
i | 0.92 | CCC[C@@H]1CCCO[C@@](C(=O)NCCN2CCOCC2)(C(F)(F)F)C1
i | 0.91 | OCOCCCn1c(C2CCCN2c2nc(-c3ccc(F)cc3)cs2)nc2cc(Cl)c(N3CCCCC3)cc21 (stereo unspecified)
i | 0.66 | CN(C)c1nc(N)c(C(=O)N=C(N)N)nc1Cl
i | 0.7 | CC(C)(O)c1ccccc1CC[C@@H](SCC1(CC(=O)O)CC1)c1cccc(/C=C/c2ccc3ccc(Cl)cc3n2)c1
i | 1 | C/C=C1\COC(C(=O)NCc2ccccc2)(C(F)(F)F)C=C1C=C1CCCCC1 (stereo unspecified)

The list goes on.
HSV augment | HSV augment primary fold | SMILES
i | 0.95 | CCn1c(SCC(=O)Nc2ccc(OCc3ccccc3)cc2)nnc1-c1ccco1
i | 0.81 | CCOC(=O)[C@@H]1[C@H]2COc3ccccc3[C@@H]2N2C(=O)N(c3ccc(OC)cc3)C(=O)[C@]12C
i | 0.94 | COc1cc(C(=O)OCCCN2CCCN(CCCOC(=O)c3cc(OC)c(OC)c(OC)c3)CC2)cc(OC)c1OC
i | 0.81 | CCC1(CC)C(=O)C2=C3C1[C@H](C(=O)OC)CC(C(=O)OC)C[C@H]3n1c(=O)n(C)c(=O)n1[C@H]2C (stereo partly specified)
i | 0.72 | COc1ccc(-c2noc3c2-c2nc(-c4ccccc4)sc2CC3)cc1
i | 0.65 | CC(COc1ccccc1Cc1ccccc1)N1CCCCC1 (stereo unspecified)
i | 0.95 | CCc1ccc(C2CC(c3cccc(OC)c3)n3nc(N)nc3N2)cc1 (stereo unspecified)
i | 0.92 | CCCCn1c(=O)c2c(c3ccccc31)OCC(=O)N2
i | 0.83 | CCCCN1CC[C@H]2C=CC[C@@H](C(=O)N3CCOCC3)[C@H]2C1=O
i | 0.97 | O=C1N[C@@H](Cc2cn(S(=O)(=O)c3ccc(F)cc3)c3ccccc23)C(=O)N[C@H]1Cc1ccccc1
i | 1.3 | O=C(O)CC(O)(CC(=O)O)C(=O)O
i | 0.62 | CC1=C(C(=O)OCc2ccccc2)C(c2ccc(-c3ccccc3)cc2)NC(=O)N1CCCC(=O)O (stereo unspecified)
i | 1 | CC(C)(C)n1nc(Cc2cccc3ccccc23)c2c(N)ncnc21
i | 1.2 | O=C1C(O)=C(O)C(=O)c2ccccc21
i | 0.97 | CC1(C)C2CC[C@]3(C)C(CC=C4[C@@H]5C[C@](C)(CO)CC[C@]5(C(=O)O)CC[C@]43C)[C@@]2(C)CC[C@@H]1O (stereo partly specified)
i | 0.69 | CC1CC2C3CCC4=CC(=O)C=CC4(C)[C@@]3(Cl)C(O)CC2(C)C1(O)C(=O)CO (stereo partly specified)
i | 1 | COC(=O)CN1C(=O)[C@@H]2[C@H](C1=O)[C@@H]1CC(C(=O)OC)=C[C@@H](C(=O)OC)[C@@H]3C1=C(C(=O)[C@]3(C)NC(=O)c1ccccc1)[C@@H]2C
i | 0.89 | O=C(NCc1ccc(C(F)(F)F)cc1)C1CC(c2ccc(C(F)(F)F)cc2)=NO1 (stereo unspecified)
i | 0.92 | CC1(C)c2[nH]c3ccccc3c2C[C@@H]2C(=O)N(Cc3ccccc3F)C(=O)N21
i | 0.87 | CCN1C(=O)N[C@@H](c2cccc(F)c2)C(C(=O)OC)=C1C
i | 1 | COC(=O)C1=C(C(=O)OC)[C@@H]2N(C)c3ccc(OC)cc3[C@@]23C[C@@H](C(=O)OC)N(C(=O)NCCBr)C3=N1
i | 0.83 | COc1ccc(NC(=O)[C@@H]2CC=C[C@@H]3CCN(Cc4ccc(Cl)c(Cl)c4)C(=O)[C@@H]32)cc1
i | 0.96 | CCCN1CCCC[C@H]1C(=O)Nc1c(C)cccc1C
i | 0.8 | Cc1ccc(Cn2c(C3CCCN3c3nc(-c4cc(Cl)c(N)c(Cl)c4)cs3)nc3cc(Cl)c(Cl)cc32)cc1 (stereo unspecified)
i | 0.84 | CCCC[C@@H]1CN=C(N)N1CCc1cccc(F)c1
i | 0.65 | CC1(C)C2CC[C@]3(C)C(CC=C4[C@@H]5C[C@@](C)(CO)[C@@H](O)C[C@]5(C(=O)O)CC[C@]43C)[C@@]2(C)CC[C@@H]1O (stereo partly specified)
i | 0.96 | O=C(NCCCN1CCOCC1)c1onc(CSc2ccc(F)c(F)c2)c1C(=O)NCCCN1CCOCC1
i | 1 | O=C(O)c1ccc(-c2noc(-c3cccc(F)c3)n2)cc1
i | 0.7 | CC(Oc1ccccc1)C(=O)N1CCC2(CC1)Oc1ccc(F)cc1C(=O)C21CC(c2ccc(Cl)cc2)=NO1 (stereo unspecified)
i | 0.98 | CCOC(=O)CN1C(=O)N[C@@H](CCc2ccccc2)[C@@H](C(=O)OC)[C@H]1C
i | 0.98 | CCOC(=O)C[C@H]1c2cc(C(F)(F)F)ccc2S(=O)(=O)N1C(C)C
i | 0.9 | COCCN1C(=O)N[C@@H](CCc2ccccc2)[C@H](C(=O)OC)[C@H]1C
i | 0.83 | NC(=O)CC(NC(=O)c1ccccc1)C(=O)O (stereo unspecified)
i | 0.84 | COc1ccc2c(c1)CCNC2Cc1ccc(OC)c(O)c1 (stereo unspecified)
i | 0.91 | COc1ccc2[nH]cc(CCNC(C)=O)c2c1
i | 0.83 | CCOC(=O)[C@@H]1[C@H]2COc3cc(OC)ccc3[C@@H]2N2C(=O)N(c3ccc(Br)cc3)C(=O)[C@]12C
i | 0.94 | CCCc1nc2c(s1)CCc1onc(-c3ccc(Br)cc3)c1-2

Screening results deposited in PubChem by SRMLSC.
